Screening results (PubChem)
H5N1 CPE = MDCK cell protection from H5N1 avian flu. cytopathic effect, luminescence, 72 h; active compounds read high; no value below 0 was filed and about half of the inactive calls have no number; reference of the scale not given here. inhibition, % at 50 µM. 96,000 tested, 0.07% active; in the data active = inhibition above about 25%
Numbers without * were called inactive. Only part of the results is shown; rates above refer to the full screens.

How did Cc1[nH]n(-c2ccccc2)c(=O)c1/C=N/NC(=O)c1cccc([N+](=O)[O-])c1 do in these assays?
H5N1 CPE: 4.2

Results for O=C(COc1ccccc1CNCc1ccccc1)Nc1ccccc1 ?
H5N1 CPE: inactive

Results for COc1ccc(C(=O)N2CCCC2)cc1S(=O)(=O)N1CCOCC1 ?
H5N1 CPE: 0.0

What do the screens show for `COc1ccc(C(=O)/C(=C\c2ccco2)N2C=CC=CC2=C(C#N)C#N)cc1`?
H5N1 CPE: 3.7

Results for Cc1cccc(CN2CCN(Cc3ccc(Cl)cc3)CC2)c1 ?
H5N1 CPE: inactive

How did CSc1nc2c(c(-c3ccc(O)cc3)c1C#N)CCC2 do in these assays?
H5N1 CPE: 0.2

Results for Cc1cc(C)nc(SCC(=O)OCN2C(=O)c3ccccc3C2=O)n1 ?
H5N1 CPE: inactive

Results for O=C(Cc1cc(=O)[nH]c(=O)[nH]1)NCC1CCCO1 (configuration not stated) ?
H5N1 CPE: inactive

How did O=C(NCCCn1ccnc1)c1noc2c1CCc1ccccc1-2 do in these assays?
H5N1 CPE: 0.6

Results for COCCn1c(Sc2ccc(C)cc2)nc2c1c(=O)[nH]c(=O)n2C ?
H5N1 CPE: 1.9

Results for COc1cc(C(=O)OCC(=O)N(C)Cc2ccccc2)cc(OC)c1OC ?
H5N1 CPE: inactive

How did Cc1ccc(S(=O)(=O)N2CCCC2C(=O)OCC(=O)Nc2ccc3c(c2)OCO3)cc1 (configuration not stated) do in these assays?
H5N1 CPE: inactive

How did O=[N+]([O-])c1ccccc1OCCCN1CCOCC1 do in these assays?
H5N1 CPE: 0.6

What do the screens show for `Cc1csc(NC(=O)CSc2nnc(-c3ccccc3)o2)n1`?
H5N1 CPE: 1.4

Results for C/C(=N\NC(=O)C(C)Oc1ccc([N+](=O)[O-])cc1)c1ccccn1 (configuration not stated) ?
H5N1 CPE: inactive

How did Cc1nc2ncnn2c(C)c1CCC(=O)N1CCN(Cc2ccccc2)CC1 do in these assays?
H5N1 CPE: 1.9

How did COc1ccccc1NC(=O)CCN1CCCCCC1 do in these assays?
H5N1 CPE: 1.9

How did CC1CC(=O)c2cnc(Nc3cccc(C(F)(F)F)c3)nc2C1 (configuration not stated) do in these assays?
H5N1 CPE: inactive

How did CCOC(=O)c1ccccc1N1C(=O)CSC1=S do in these assays?
H5N1 CPE: inactive

What do the screens show for `CCCN1CN(Cc2ccco2)c2nc3ccccc3n2C1`?
H5N1 CPE: 3.9

What do the screens show for `O=C(NC1CCCCC1)c1ccc(Cn2cc(Cl)cn2)cc1`?
H5N1 CPE: inactive

Results for O=C1CCCC2=C1C(c1ccc3c(c1)OCO3)c1c([nH]n(-c3ccccc3)c1=O)N2 (configuration not stated) ?
H5N1 CPE: inactive

How did O=C(NCCc1ccccc1)c1ccc(=O)oc1 do in these assays?
H5N1 CPE: inactive

What do the screens show for `COc1ccc(C(=O)Cc2cnn(-c3ccccc3)c2)c(O)c1`?
H5N1 CPE: inactive

Results for Cc1ccccc1NC(=O)c1sc2nc3c(c(-c4ccco4)c2c1N)CCCC3 ?
H5N1 CPE: inactive

Results for Fc1cc2nc(-c3ccncc3)[nH]c2cc1F ?
H5N1 CPE: inactive

What do the screens show for `COC(=O)c1ccc(OC)c(CSc2nnc(COc3cccc(C)c3)o2)c1`?
H5N1 CPE: inactive

How did COC(=O)c1ccc(-n2nnnc2SCC(=O)NCc2cccc(C(=O)O)c2)cc1 do in these assays?
H5N1 CPE: 0.8

Results for Cn1c(CNC(=O)Nc2ccccc2)nnc1SCc1ccccc1 ?
H5N1 CPE: 0.8

What do the screens show for `CCc1cc(=O)oc2cc(C)c3c(C)coc3c12`?
H5N1 CPE: inactive

What do the screens show for `Cn1c(CSCc2ccc(F)cc2)nnc1SCC(=O)Nc1nccs1`?
H5N1 CPE: 1.8

What do the screens show for `Cc1ccc(S(=O)(=O)N2CC(=NO)C2)cc1`?
H5N1 CPE: 1.2

What do the screens show for `C/C(=N/NC(=O)c1ccc(C)s1)c1cccc(NC(=O)COc2ccc(Cl)cc2C)c1`?
H5N1 CPE: inactive

How did Cc1csc2nc(CNC(=O)C3CC=CCC3C(=O)O)cn12 (configuration not stated) do in these assays?
H5N1 CPE: 1.0

How did CNC(=O)c1cc2ccc(OC)cc2oc1=O do in these assays?
H5N1 CPE: inactive

How did N/C(Cc1ccc([N+](=O)[O-])cc1)=N\OC(=O)C(c1ccccc1)c1ccccc1 do in these assays?
H5N1 CPE: inactive

Results for CCOc1ccc(-n2c(N)c(C(=O)NCc3cccnc3)sc2=S)cc1 ?
H5N1 CPE: 0.3

What do the screens show for `Cc1cc(=O)n2c(-c3ccccc3C)n[nH]c2n1`?
H5N1 CPE: 0.4

What do the screens show for `COc1ccc(C(=O)Nc2cccc(OC)c2)cc1`?
H5N1 CPE: inactive

What do the screens show for `CN1C(=O)C(C2(C#N)CCCCC2)C(=O)N(C)C1=O`?
H5N1 CPE: 0.3

Results for c1cc(CNCCCN2CCOCC2)ccn1 ?
H5N1 CPE: 0.1

What do the screens show for `COc1ccc(C(CC(=O)Nc2ccc(Cl)cc2F)NC(=O)C(F)(F)F)cc1` (configuration not stated)?
H5N1 CPE: inactive

How did O=C(Nc1ccc2oc(-c3ccc(Cl)c(Cl)c3)nc2c1)c1ncn[nH]1 do in these assays?
H5N1 CPE: inactive

What do the screens show for `O=C(O)CCCCc1nc2ccccc2s1`?
H5N1 CPE: inactive

What do the screens show for `CCN(C(=O)c1ccc(C(C)(C)C)cc1)c1nnc(Cn2nnc3ccccc32)s1`?
H5N1 CPE: inactive

Results for O=c1nc2ccccc2c2n1CC(CN1CCN(c3ccccc3F)CC1)N2 (configuration not stated) ?
H5N1 CPE: inactive

How did COC(=O)/C=c1\sc2ncnn2c1=O do in these assays?
H5N1 CPE: 0.2

How did O=C1CCCN1CCC1CCN(C2CC(=O)N(c3ccc(F)cc3)C2=O)CC1 (configuration not stated) do in these assays?
H5N1 CPE: 1.8

How did COCc1cc(C)nc(N2CCN(Cc3ccccc3)CC2)c1C#N do in these assays?
H5N1 CPE: inactive

What do the screens show for `CCN(CC)CCN(C)Cc1ccc(Br)cc1`?
H5N1 CPE: inactive

What do the screens show for `CCOc1ccccc1NC(=O)CSc1nnnn1-c1ccccc1`?
H5N1 CPE: 1.9

How did COCCCNC(=O)Cn1cc(C(C)=O)c2ccccc21 do in these assays?
H5N1 CPE: inactive

How did CCc1ccc(CCC(=O)Nc2nccs2)o1 do in these assays?
H5N1 CPE: inactive

What do the screens show for `Cc1ccc(/C=C2\SC(=S)N(CC(=O)Nc3ncc(Cc4ccccc4Cl)s3)C2=O)cc1`?
H5N1 CPE: inactive

Results for O=C(CN(c1ccc(F)cc1)S(=O)(=O)c1ccc2c(c1)OCCO2)NCc1ccncc1 ?
H5N1 CPE: 0.6

How did CCC(C)NC(=O)N[C@@H](CCSC)C(=O)O (some centres not stated) do in these assays?
H5N1 CPE: inactive

How did CCc1ccc(-n2c(SCC(=O)Nc3cc(C)[nH]n3)nc3[nH]ncc3c2=O)cc1 do in these assays?
H5N1 CPE: inactive

Results for CCC(=Nc1ccccc1NC(C)=O)c1c(O)n(C)c(=O)n(C)c1=O ?
H5N1 CPE: 0.6

How did Cc1cccc(NC(=O)Cn2nnc(-c3ccc(CN4CCCC4)cc3)n2)c1C do in these assays?
H5N1 CPE: inactive

How did O=C(NCCc1nc2ccccc2[nH]1)c1ccc(F)cc1 do in these assays?
H5N1 CPE: inactive

How did COCCn1c(SCC(=O)OC(C)C)nnc1-c1ccccc1 do in these assays?
H5N1 CPE: inactive

Results for COc1ccc(-c2nnc3sc(C4CCCCC4)nn23)cc1OC ?
H5N1 CPE: 1.9

What do the screens show for `CCOC(=O)CNC(=O)CNC(=O)c1ccc(OCC(C)C)cc1`?
H5N1 CPE: 0.3

What do the screens show for `CCCC1=C(C(=O)OCC)C(c2ccc(NC(C)=O)cc2)NC(=O)N1` (configuration not stated)?
H5N1 CPE: 0.6

Results for Cc1ccc(OC(C)C(=O)Nc2ccc(S(=O)(=O)Nc3cc(C)on3)cc2)cc1 (configuration not stated) ?
H5N1 CPE: inactive

Results for O=C(Nc1ccc2oc(-c3ccncc3)nc2c1)c1ccccc1F ?
H5N1 CPE: inactive

Results for COc1ccc(C(=O)CN2CCN(c3ccc(F)cc3)CC2)cc1OC ?
H5N1 CPE: inactive

What do the screens show for `CN(C)S(=O)(=O)c1ccc(Nc2ccc(-c3ccc4c(c3)OCCO4)nn2)cc1`?
H5N1 CPE: 1.1

How did CC1CN(C2CCCCC2)c2nc3c(c(=O)[nH]c(=O)n3C)n2C1 (configuration not stated) do in these assays?
H5N1 CPE: 0.9

How did O=C(Nc1ccon1)c1csc2c1CCCC2 do in these assays?
H5N1 CPE: inactive

How did O=C(Nc1ccncc1)c1ccc2c(c1)OCCO2 do in these assays?
H5N1 CPE: inactive

What do the screens show for `CN(C)S(=O)(=O)c1ccc2c(c1)c(=O)c(C(=O)NCCCN1CCCCCC1)cn2C`?
H5N1 CPE: 0.6

Results for CCOc1ccc(N(C(C)=O)C2C=CS(=O)(=O)C2)cc1 (configuration not stated) ?
H5N1 CPE: inactive

How did CCc1nnc(NC(=O)c2cccc(S(=O)(=O)N3CC(c4ccccc4)CC3=O)c2)s1 (configuration not stated) do in these assays?
H5N1 CPE: inactive

What do the screens show for `Cc1occc1-c1nnc(SCC(=O)Nc2nc(C(C)(C)C)cs2)o1`?
H5N1 CPE: inactive

Results for COC(=O)c1sc(N)c(C(=O)OC)c1COC(=O)c1c(C)noc1C ?
H5N1 CPE: inactive

What do the screens show for `COc1cccc(NC(=O)CCCn2c(=O)[nH]c3ccccc3c2=O)c1`?
H5N1 CPE: 0.1

How did CCN(CC)C(=O)CN(c1ccc(C)cc1)S(=O)(=O)c1ccc(SC)cc1 do in these assays?
H5N1 CPE: 1.8

What do the screens show for `Cc1ccccc1Nc1cc2ccccc2c(=O)[nH]1`?
H5N1 CPE: inactive

What do the screens show for `CCOC(=O)CNc1nc(C#N)nc(N2CCOCC2)n1`?
H5N1 CPE: inactive

What do the screens show for `Cn1c(=O)oc2cc(S(=O)(=O)NCCC(=O)NCCc3ccc(Cl)cc3)ccc21`?
H5N1 CPE: 0.6

What do the screens show for `O=C(c1ccccc1)c1nn(-c2ccc(Cl)cc2)cc1C(=O)c1cc2ccccc2oc1=O`?
H5N1 CPE: inactive

How did COc1ccccc1OCCSc1nc2ccccc2c(=O)[nH]1 do in these assays?
H5N1 CPE: inactive

How did N/C(CN1CCCC1=O)=N\O do in these assays?
H5N1 CPE: 0.3

Results for O=C(Cn1c(C(=O)NCC2CCCO2)cc2sccc21)c1ccccc1 (configuration not stated) ?
H5N1 CPE: inactive

Results for COc1ccc(N(CC(=O)Nc2ccc3c(c2)OCO3)S(=O)(=O)c2ccccc2)c(OC)c1 ?
H5N1 CPE: 2.4

How did O=C(NC1CCS(=O)(=O)C1)N1CCCCC1 (configuration not stated) do in these assays?
H5N1 CPE: 1.3

How did CCNS(=O)(=O)c1cc(Br)ccc1OC do in these assays?
H5N1 CPE: inactive

What do the screens show for `Cc1cc(C)c(NC(=O)CS(=O)CC(=O)N2CCN(c3ccc(F)cc3)CC2)c(C)c1` (configuration not stated)?
H5N1 CPE: inactive

What do the screens show for `Cc1ccc(-c2nc3c(=O)n(C)c4ccccc4c3o2)cc1`?
H5N1 CPE: 2.5

What do the screens show for `COc1ccccc1NC(=O)Nc1ncccc1C`?
H5N1 CPE: inactive

Results for O=S(=O)(Cc1ccccc1)c1ccccc1-c1nnc(-c2ccccc2)o1 ?
H5N1 CPE: inactive

What do the screens show for `CCCCN(C(=O)NC(=O)Nc1ccccc1C)S(C)(=O)=O`?
H5N1 CPE: 0.9

What do the screens show for `CN(C)c1ccc(/C=C/c2cc[n+]([O-])cc2)cc1`?
H5N1 CPE: inactive

How did COc1ccc(CNC(=O)C(c2ccncc2)N(C(=O)Cc2cccs2)c2cccc(C)c2)cc1 (configuration not stated) do in these assays?
H5N1 CPE: inactive

How did Cc1cc(C)n(-c2ncnc3sc(C)c(C)c23)n1 do in these assays?
H5N1 CPE: inactive

What do the screens show for `CCCCOc1ccccc1Cn1c(=O)oc2ccccc21`?
H5N1 CPE: 0.2

How did CCOc1cc2c(cc1OCC)C(C(=O)O)C(c1cc(OC)c(OC)c(OC)c1)N(C)C2=O (configuration not stated) do in these assays?
H5N1 CPE: inactive

Results for O=C(Nc1ccn(Cc2c(F)c(F)cc(F)c2F)n1)c1cccc(Cn2cc([N+](=O)[O-])cn2)c1 ?
H5N1 CPE: inactive

Results for O=C(COC(=O)C1COc2ccccc2O1)NC(=O)Nc1ccc2c(c1)OCCO2 (configuration not stated) ?
H5N1 CPE: 0.4

How did C=CCN(C(=O)CNC(=O)c1ccco1)C(C(=O)NC1CCCCC1)c1ccccc1F (configuration not stated) do in these assays?
H5N1 CPE: 2.3

What do the screens show for `CCC(C)NC(=O)CCc1c(C)nc2nc(-c3cc(OC)cc(OC)c3)nn2c1C` (configuration not stated)?
H5N1 CPE: 0.2

Eleven compounds already listed, ordered by number of heavy atoms, ascending.
How did CCNS(=O)(=O)c1cc(Br)ccc1OC do in these assays?
H5N1 CPE: inactive

What do the screens show for `CN(C)c1ccc(/C=C/c2cc[n+]([O-])cc2)cc1`?
H5N1 CPE: inactive

What do the screens show for `COc1ccccc1NC(=O)Nc1ncccc1C`?
H5N1 CPE: inactive

What do the screens show for `CCCCOc1ccccc1Cn1c(=O)oc2ccccc21`?
H5N1 CPE: 0.2

Results for O=S(=O)(Cc1ccccc1)c1ccccc1-c1nnc(-c2ccccc2)o1 ?
H5N1 CPE: inactive

What do the screens show for `CCC(C)NC(=O)CCc1c(C)nc2nc(-c3cc(OC)cc(OC)c3)nn2c1C` (configuration not stated)?
H5N1 CPE: 0.2

What do the screens show for `Cc1cc(C)c(NC(=O)CS(=O)CC(=O)N2CCN(c3ccc(F)cc3)CC2)c(C)c1` (configuration not stated)?
H5N1 CPE: inactive

How did C=CCN(C(=O)CNC(=O)c1ccco1)C(C(=O)NC1CCCCC1)c1ccccc1F (configuration not stated) do in these assays?
H5N1 CPE: 2.3

How did CCOc1cc2c(cc1OCC)C(C(=O)O)C(c1cc(OC)c(OC)c(OC)c1)N(C)C2=O (configuration not stated) do in these assays?
H5N1 CPE: inactive

Results for O=C(Nc1ccn(Cc2c(F)c(F)cc(F)c2F)n1)c1cccc(Cn2cc([N+](=O)[O-])cn2)c1 ?
H5N1 CPE: inactive

How did COc1ccc(CNC(=O)C(c2ccncc2)N(C(=O)Cc2cccs2)c2cccc(C)c2)cc1 (configuration not stated) do in these assays?
H5N1 CPE: inactive
